nsP2pro inh = Primary qHTS for inhibitors of NSP2Pro chikungunya virus (CHIKV); Polyprotein P1234 (Chikungunya virus (strain S27-African prototype)), Q8JUX6; 31,000 compounds, 1.1% hits; FRET peptide cleavage, nsP2pro, fluorescence 1 h; Potency, µM (series often up to 24.9 µM), inactives show top-dose activity change, negative = inhibition, actives largely listed as inhibitors; active means well fitted inhibition curve with a large enough effect; inconclusive means small, poorly fitted or top-dose-only effect; inactive means no such curve, though single readings can be large or run the other way; also: nearly all actives have a fitted effect of over 60% in size; a reference inhibitor and vehicle were the controls
* hit, by the source's call; & = joins results of further samples; [ ] = remark or other dose. % is scaled to controls: 0 for no effect and ±100 for the full control effect; potency is read from the fitted curve at half-maximal effect. An excerpt (hit frequency here may not be typical).

`Cc1ccc(Cl)c(OCC(O)CNC(C)(C)C)c1` (configuration not stated) gave nsP2pro inh -4%.
For CCCCc1nn2c(=O)cc(COC(=O)c3ccc(NC(=O)c4cccc(OC)c4)cc3)nc2s1 the results were nsP2pro inh -15%.
Screening CC(NC(=O)[C@H](Cc1ccccc1)NC(=O)OCc1ccccc1)C(=O)CF (some centres not stated) returned nsP2pro inh -28%.
Screening O=C(O)C1CN(Cc2ccc(-c3nc4cc(Cc5ccccc5F)ccc4s3)c(F)c2)C1 returned nsP2pro inh -9%[5.1 µM].
CCn1ccnc1CN(C)c1cc(C2CC(N)C2)nc(COC)n1 (configuration not stated) was read as nsP2pro inh -3%.
For CC(C)=C1CC2C(CCC2(C)O)C(C)(O)CC1=O (configuration not stated) the results were nsP2pro inh 71%[activator].
`COc1cc(C(=O)NCC(c2cccnc2)N2CCc3ccccc32)cc(OC)c1OC` (configuration not stated) gave nsP2pro inh -7%.
Cc1nn(C)c(C)c1CCC(=O)NC1CCc2nnc(C3CC3)n2CC1 (configuration not stated) was read as nsP2pro inh -1%.
For Cc1cc(C)n(CCCN(C)C(=O)C2C3C(=O)N(CCC(C)C)C[C@@]34C=C[C@@H]2O4)n1 (some centres not stated) the results were nsP2pro inh -2%.
CCN(CC)C(=O)[C@@H]1CCCN1C1(C(=O)NC)COC1 was read as nsP2pro inh 0%[39.2 µM].
Screening COc1ccccc1-c1ccnc(N[C@H]2CO[C@H]3[C@@H]2OC[C@@H]3NC(=O)COc2ccccc2)n1 returned nsP2pro inh 5%.
Screening CC(C)Cn1c(=O)c2ccccc2n2c(CCC(=O)NCc3ccc(Cl)cc3)nnc12 returned nsP2pro inh -15%.
For CCc1c(C)sc2c1CCN(Cc1ccc(C#N)cc1)C2c1ccccc1 (configuration not stated) the results were nsP2pro inh inconclusive.
COc1cc(N2CCC(O)CC2)ccc1Nc1nc(Nc2ccccc2S(=O)(=O)C(C)C)c2[nH]cnc2n1 was read as nsP2pro inh 0%.
`Fc1ccc(C(NCCc2ccc(Cl)cc2)c2nnc(-c3ccccc3)o2)c(Cl)c1` (configuration not stated) gave nsP2pro inh 3%.
For CC(=O)c1ccc(NC(=O)N[C@H]2CCN3C(=O)[C@@H](Cc4ccccc4)NC(=O)[C@H]23)cc1 the results were nsP2pro inh inactive.
Screening O=C(NCc1ccccc1)c1nc(S(=O)(=O)Cc2ccc(F)cc2)ncc1Cl returned nsP2pro inh 7.6µM*.
Screening O=c1[nH]c(CCl)nc2sc3c(c12)CCCC3 returned nsP2pro inh -3%.
Cc1ccc(-n2cccc2CC(=O)N2CCCC2)cc1 was read as nsP2pro inh inconclusive.
For O=C(COc1ccccc1)NCCc1csc(-c2cccc(F)c2)n1 the results were nsP2pro inh -18%.
CCOc1ccc(NC(=O)CSc2nc3c(c(=O)[nH]2)CCCC3)cc1 was read as nsP2pro inh -20%.
Screening Cc1cc(C)nc(NC(=S)N2CCN(c3cccc(C(=O)O)c3)CC2)c1 returned nsP2pro inh -18%.
For Cc1ccc(Nc2nccc(N(C)c3ccc4c(C)n(C)nc4c3)n2)cc1S(N)(=O)=O the results were nsP2pro inh 31%&-15%.
For CCCCCCCCCCCCCCCC[N+](C)(C)C the results were nsP2pro inh 193%[activator].
Screening O=C(Cn1c(-c2cccs2)cc2cc(F)ccc21)NCCCN1CCN(c2ccccc2F)CC1 returned nsP2pro inh 9%.
CCOC(=O)c1c(NC(=O)c2cc(-c3cccc(Cl)c3)on2)sc(C(C)=O)c1C was read as nsP2pro inh inconclusive.
For COC(=O)c1ccc(O)c2ncc(-c3ccc(C(=O)N4CCN(C)CC4)cc3)cc12 the results were nsP2pro inh inactive.
OC[C@H]1O[C@@H](n2cnc3c(NCc4ccc(O)cc4)ncnc32)[C@H](O)[C@@H]1O was read as nsP2pro inh 1%.
`CNCc1cn(C[C@H]2O[C@@H](CC(=O)N(C)Cc3ccccc3)[C@H](O)[C@@H]2O)nn1` gave nsP2pro inh -5%[39.2 µM].
Screening O=C1NC(Cc2c[nH]c3ccccc23)C(=O)NC1Cc1c[nH]c2ccccc12 (configuration not stated) returned nsP2pro inh 6.1µM*.
COc1ccc(OC)c(CCNc2ncnc3onc(-c4ccc(F)cc4)c23)c1 was read as nsP2pro inh -6%.
For Cc1cc2c(s1)c1cnn(Cc3ccc(C)c(F)c3F)c(=O)c1n2C the results were nsP2pro inh -10%.
O=C(Cc1ccc(F)cc1)NC1CC(=O)N(c2ccccc2)C1 (configuration not stated) was read as nsP2pro inh -17%.
For C[C@@H]1O[C@@H](O[C@H]2[C@H](O[C@H]3CC[C@@]4(C)C(CC[C@]5(C)C4CC=C4[C@@H]6CC(C)(C)CC[C@]6(C(=O)O)CC[C@]45C)[C@]3(C)CO)OC[C@H](O)[C@@H]2O)[C@H](O)[C@H](O[C@@H]2OC[C@@H](O)[C@H](O)[C@H]2O)[C@H]1O (some centres not stated) the results were nsP2pro inh inconclusive.
For Cc1c(-c2ccnc(Nc3cc(Br)cc(C(F)(F)F)c3)n2)sc(=O)n1C the results were nsP2pro inh 8%.
For CCC(NC(=O)CC(NC(=O)C(CO)NC(=O)C(CC)NC(=O)c1ccc[nH]1)c1ccccc1)C(=O)O (configuration not stated) the results were nsP2pro inh inconclusive.
For O=[N+]([O-])c1ccc(-c2nc(Nc3ccc(F)c(F)c3)c3ccccc3n2)cc1 the results were nsP2pro inh -2%.
Screening O=C(CCCN1CCN(c2ccc(F)cc2)CC1)NC1c2ccccc2CSc2ccccc21 (configuration not stated) returned nsP2pro inh -18%.
CC1CCN(CCCNC(=O)C2CCc3sc(C(=O)N4CCCC4)cc3C2)CC1 (configuration not stated) was read as nsP2pro inh -3%.
Screening O=C(Nc1ccc(F)c(Cl)c1)Nc1c[nH]c(=O)[nH]c1=O returned nsP2pro inh -28%.

11 successive compounds already listed:
Screening O=C1NC(Cc2c[nH]c3ccccc23)C(=O)NC1Cc1c[nH]c2ccccc12 (configuration not stated) returned nsP2pro inh 6.1µM*.
COc1ccc(OC)c(CCNc2ncnc3onc(-c4ccc(F)cc4)c23)c1 was read as nsP2pro inh -6%.
For Cc1cc2c(s1)c1cnn(Cc3ccc(C)c(F)c3F)c(=O)c1n2C the results were nsP2pro inh -10%.
O=C(Cc1ccc(F)cc1)NC1CC(=O)N(c2ccccc2)C1 (configuration not stated) was read as nsP2pro inh -17%.
For C[C@@H]1O[C@@H](O[C@H]2[C@H](O[C@H]3CC[C@@]4(C)C(CC[C@]5(C)C4CC=C4[C@@H]6CC(C)(C)CC[C@]6(C(=O)O)CC[C@]45C)[C@]3(C)CO)OC[C@H](O)[C@@H]2O)[C@H](O)[C@H](O[C@@H]2OC[C@@H](O)[C@H](O)[C@H]2O)[C@H]1O (some centres not stated) the results were nsP2pro inh inconclusive.
For Cc1c(-c2ccnc(Nc3cc(Br)cc(C(F)(F)F)c3)n2)sc(=O)n1C the results were nsP2pro inh 8%.
For CCC(NC(=O)CC(NC(=O)C(CO)NC(=O)C(CC)NC(=O)c1ccc[nH]1)c1ccccc1)C(=O)O (configuration not stated) the results were nsP2pro inh inconclusive.
For O=[N+]([O-])c1ccc(-c2nc(Nc3ccc(F)c(F)c3)c3ccccc3n2)cc1 the results were nsP2pro inh -2%.
Screening O=C(CCCN1CCN(c2ccc(F)cc2)CC1)NC1c2ccccc2CSc2ccccc21 (configuration not stated) returned nsP2pro inh -18%.
CC1CCN(CCCNC(=O)C2CCc3sc(C(=O)N4CCCC4)cc3C2)CC1 (configuration not stated) was read as nsP2pro inh -3%.
Screening O=C(Nc1ccc(F)c(Cl)c1)Nc1c[nH]c(=O)[nH]c1=O returned nsP2pro inh -28%.

Remaining list, next part
`CCOC(=O)c1cccc(-n2cccc2/C=C2\NC(=O)N(CC(=O)O)C2=O)c1` gave nsP2pro inh 1%.
For Cc1ccccc1C(=O)Nc1ccc2c(c1)CCCN2C(=O)c1cccs1 the results were nsP2pro inh 41%.
For COc1ccc(-c2nc3cccc(OC)c3c(=O)n2Cc2ccccc2)cc1COc1ccc(NC(C)=O)cc1 the results were nsP2pro inh -15%.
`CCOC(=O)c1cc2ccc(O)cc2oc1=O` gave nsP2pro inh 13%.
For CCCCC(CC)COC(=O)C(C#N)=C(c1ccccc1)c1ccccc1 (configuration not stated) the results were nsP2pro inh inconclusive.
For CC(C)C[C@H](CC(=O)NO)C(=O)N[C@H](C(=O)N[C@@H](C)C(=O)NCCN)C(C)(C)C the results were nsP2pro inh -3%[5.1 µM].
Cc1nc(CN(C)c2ncnc3ccc(-c4ccc5c(c4)OCO5)cc23)cs1 was read as nsP2pro inh 3%&3%.
Cc1sc2ncn(CC(=O)Nc3ccc(F)cc3F)c(=O)c2c1S(=O)(=O)N1CCC(C)CC1 was read as nsP2pro inh -19%.
COc1cc(/C=C(\C#N)c2nc3ccc(C)cc3[nH]2)ccc1OCc1ccc(C)cc1 was read as nsP2pro inh -16%.
CCOc1sc2nc(C)n(CC(=O)Nc3cccc(C)c3)c(=O)c2c1C was read as nsP2pro inh -29%.
COc1c(O[C@@H]2O[C@H](CO)[C@@H](O)[C@H](O)[C@H]2O)c(CCC(=O)O)cc2ccoc12 was read as nsP2pro inh -12%.
Screening Cc1cc(C[C@@H]2COC[C@@H]2NC(=O)c2cccc(-n3nc(C)cc3C)c2)on1 returned nsP2pro inh inactive.
For Cc1nnc([C@@H]2CC(F)(F)CN2C(=O)c2ccoc2)o1 the results were nsP2pro inh -3%.
`CCc1cccc2c(C(CC(=O)N3CCCC3)c3cccc([N+](=O)[O-])c3)c[nH]c12` (configuration not stated) gave nsP2pro inh -2%.
For COc1cccc(CNC(=O)c2cc3c(=O)n(Cc4cccnc4)ccc3nc2C)c1 the results were nsP2pro inh -15%.
Screening COc1ccc(CCNc2ncnc3c2cnn3-c2ccc(F)cc2)cc1 returned nsP2pro inh -17%.
`COc1cccc(C(=O)NC(c2ccc(Cl)cc2)c2cc(Cl)c3cccnc3c2O)c1` (configuration not stated) gave nsP2pro inh 13%.
COc1ccc(Cn2c(SCc3ccc(C(=O)NC4CCCCC4)cc3)nc3cccnc32)cc1 was read as nsP2pro inh -18%.
Clc1ccc(-c2nc3ccccc3s2)cc1 was read as nsP2pro inh inconclusive.
For CCc1noc(-c2cn(C3CCN(C(=O)c4cc(Cl)ccc4F)CC3)nn2)n1 the results were nsP2pro inh 3%.
O=C1NC[C@H]2CN(C3CCOCC3)CCN12 was read as nsP2pro inh -15%[39.2 µM].
Screening C[C@]1(CO)[C@H]2Cc3sc(NC(=O)c4ccc(F)cc4)nc3[C@@H](CC(=O)NCc3ccccc3)[C@]2(C)CC[C@H]1O returned nsP2pro inh inactive.
Screening O=C1NCCCc2c1oc1ccc(O)cc21 returned nsP2pro inh 0%.
For Cc1ccc(CNC(=O)c2nc(SCc3ccccc3F)ncc2Cl)cc1 the results were nsP2pro inh 11µM*.
For COCC(=O)N1CCN(CC(=O)NCc2cccs2)[C@H]2CS(=O)(=O)C[C@H]21 the results were nsP2pro inh -3%.
CCN(CCN(C)C)C(=O)Cn1ncc2c([nH]c3ccc(C)cc32)c1=O was read as nsP2pro inh -2%.
For COc1ccc(C2Nc3ccccc3C(=O)N2Cc2ccc(-c3ccccc3)cc2)cc1COc1ccc(NC(C)=O)cc1 (configuration not stated) the results were nsP2pro inh -7%.
Screening COc1ccc(NC(=O)c2cnn(-c3ccc(C)c(C)c3)c2C2CCNCC2)cc1OC returned nsP2pro inh 13%.
`COc1ccc(-c2nnc(SCC(=O)NC3CCCCC3)nc2-c2ccc(OC)cc2)cc1` gave nsP2pro inh -7%.
`CCCN1CCN(CCNC(=O)Nc2ccccc2OCC)CC1` gave nsP2pro inh -5%.
`O=C(CCC1N=C2c3ccccc3N=C(SCc3cccc(Cl)c3)N2C1=O)NCCc1ccccc1` (configuration not stated) gave nsP2pro inh -6%.
`COC(=O)c1ccc2c(c1)N(Cc1ccccc1)C(=O)c1ccccc1S2(=O)=O` gave nsP2pro inh -21%.
`O=C(O)c1ccnc(-c2cc(C(=O)NCCc3ccccc3)ccn2)c1` gave nsP2pro inh 4%.
O=C(Nc1ccccc1)N1CCC2(C1)C(=O)N(CCc1ccccc1)c1ccccc12 (configuration not stated) was read as nsP2pro inh 2%.
CCOc1ccccc1CNCCNC(=O)c1nonc1N was read as nsP2pro inh -21%.
`COc1ccc(C2Nc3ccccc3C(=O)N2CCO)cc1COc1ccc(NC(C)=O)cc1` (configuration not stated) gave nsP2pro inh inconclusive.
Screening N#C/C(=C\c1ccc(O)cc1)C(=O)NCC1CCCO1 (configuration not stated) returned nsP2pro inh -18%.
Screening Cc1ccccc1C(=O)Nc1cccc(C(=O)OCc2cc(=O)n3c(C)csc3n2)c1 returned nsP2pro inh -2%.
For COC(=O)c1ccc(-n2c(/C=C\c3cccc(Br)c3)nc3ccccc3c2=O)cc1 the results were nsP2pro inh inconclusive.
Cc1ccccc1OCc1nnc(SCc2cc(=O)c3ccc(C)c(C)c3[nH]2)n1C was read as nsP2pro inh -6%.
`Cc1cc(N[S+](=O)([O-])c2ccc(NC(=O)Cc3ccc(F)c(C(F)(F)F)c3)cc2)no1` gave nsP2pro inh inactive.
For CCOC(=O)c1c(-c2ccc(C)o2)csc1NC(=O)CSc1nnnn1-c1ccccc1 the results were nsP2pro inh inactive.
OCc1nnc(C2CC(Nc3ncnc4ccccc34)C2)n1C1CC1 (configuration not stated) was read as nsP2pro inh 1%.
For COC(=O)c1ccc(C2Nc3c(C)cc(C)cc3C3C=CCC32)cc1 (configuration not stated) the results were nsP2pro inh inconclusive.
For CNCCN(C)C(=O)C1CCCN(C2CCN(C3Cc4ccccc4C3)CC2)C1 (configuration not stated) the results were nsP2pro inh -4%.
Screening Cc1ccc(CCNC(=O)C2CCN(c3cc(C(F)(F)F)ncn3)CC2)cc1 returned nsP2pro inh 1%.
For C[C@@]12C[C@]3(O)O[C@H](O1)[C@]1(COC(=O)c4ccccc4)[C@H]3C[C@@]12O[C@@H]1O[C@H](COC(=O)c2ccccc2)[C@@H](O)[C@H](O)[C@H]1O the results were nsP2pro inh -1%[10 µM].

Bioassay records deposited in PubChem BioAssay by National Center for Advancing Translational Sciences (NCATS).
